Vif A3G: inhibitors of Vif binding to APOBEC3G peptide, primary screen, biochemical, TR-FRET, GST-Vif 1-94, biotin-A3G peptide, dose response retest (AID 1117319); Virion infectivity factor (Human immunodeficiency virus type 1 group M subtype B (isolate …; TR-FRET GST-Vif / biotin-A3G peptide binding; higher % means a stronger effect; test concentration not given here; strong numbers were not always called active; inhibition, %, or IC50 in µM where a hit was titrated; 0.57% of 260,000 active;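 active means above the screen mean plus three standard deviations and confirmed in dose response; inconclusive means results disagree or hit not tested in dose response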;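 further: Vif residues 1-94 fused to GST binding biotinylated APOBEC3G peptide 110-148; 0% = full assay without inhibitor and 100% = GST in place of GST-Vif; retest series ran down from 100 µM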
HNF4A DNA FP: change in binding of human HNF4A to DNA, primary screen, biochemical, fluorescence polarization, FITC-DNA. Hepatocyte nuclear factor 4-alpha (Homo sapiens), P41235. 1 h. activity change, % at 10 µM. 0.3% of 360,000 active. AID 1224865, 2016; in the data active means activity change above about 30%, passing the limit was not always enough;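 further: controls were the assay level and a saturating level of protein; the project sought stronger binding though the title names inhibitors; some compounds called inactive have numbers as strong as hits; positive values seem to mean higher polarization but the record does not say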
MLL AF4-AF9 inh: inhibitors of AF4 peptide binding to AF9, primary screen, biochemical, AlphaScreen, biotin-AF4 peptide, FLAG-AF9, single point; inhibition, % at 10 µM; 0.47% of 350,000 active;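 active means every replicate reaching a set inhibition limit, whatever the replicate mean, cut at about 25% in these data; inconclusive means mean inhibition reaches that limit but some replicates miss it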;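 further: 0% = plate neutral control median and 100% = total signal loss; the record names both 10 and 1 µM as test concentration; the first replicate is given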
Target sequence (P42568 whole entry, looked up): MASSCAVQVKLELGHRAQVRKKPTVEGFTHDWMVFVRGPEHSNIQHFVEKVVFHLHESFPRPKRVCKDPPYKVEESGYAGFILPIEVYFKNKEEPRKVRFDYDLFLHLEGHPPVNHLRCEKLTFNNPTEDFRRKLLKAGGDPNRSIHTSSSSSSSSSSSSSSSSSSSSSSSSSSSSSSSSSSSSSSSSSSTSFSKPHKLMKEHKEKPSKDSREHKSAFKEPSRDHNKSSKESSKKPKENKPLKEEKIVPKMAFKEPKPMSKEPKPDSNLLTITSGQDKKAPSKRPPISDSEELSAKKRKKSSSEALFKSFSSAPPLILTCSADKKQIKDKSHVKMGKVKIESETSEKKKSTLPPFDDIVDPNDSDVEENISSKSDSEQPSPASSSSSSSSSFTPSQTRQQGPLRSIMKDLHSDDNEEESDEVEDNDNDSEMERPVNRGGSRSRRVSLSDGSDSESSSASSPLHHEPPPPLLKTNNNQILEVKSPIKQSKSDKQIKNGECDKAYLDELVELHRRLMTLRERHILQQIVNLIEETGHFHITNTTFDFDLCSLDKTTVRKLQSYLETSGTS
Ecoli growth: E. coli growth inhibition, primary screen, OD600; Escherichia coli growth, 23 h; hits give low values; OD600 absorbance (concentration not given with the values); 0.21% of 330,000 active; AID 1053175, 2014;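 active means OD600 absorbance below the run mean of sample wells minus 3.6 SD, in any replicate, cut at about 0.56 in these data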;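 further: stock transfer was 300 nL into about 60 µL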
UCH37 inh: inhibitors of human UCH37 deubiquitinase, primary screen, biochemical, Ub-AMC cleavage, fluorescence; Ubiquitin carboxyl-terminal hydrolase isozyme L5 (Homo sapiens), Q9Y5K5; purified proteasome/UCH37; inhibition, % (no concentration beside the values); 0.33% of 330,000 active; AID 588478, 2011;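 active means mean of two replicates above 20%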;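 further: 0% = compound-free wells with enzyme and 100% = wells lacking proteasome; stock transfer was 100 nL into about 20 µL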
Target sequence (Q9Y5K5 whole entry, looked up): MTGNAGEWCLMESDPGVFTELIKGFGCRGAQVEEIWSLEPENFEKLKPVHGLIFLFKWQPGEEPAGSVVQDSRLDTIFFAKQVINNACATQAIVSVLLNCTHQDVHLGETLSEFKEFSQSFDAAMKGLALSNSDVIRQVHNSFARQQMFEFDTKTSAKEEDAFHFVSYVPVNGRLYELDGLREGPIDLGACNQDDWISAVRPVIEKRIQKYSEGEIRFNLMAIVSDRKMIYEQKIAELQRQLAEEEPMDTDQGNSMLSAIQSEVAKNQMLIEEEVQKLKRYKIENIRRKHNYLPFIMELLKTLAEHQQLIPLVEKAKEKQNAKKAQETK
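Material: Human UCH37 enzyme supplied as purified proteasome complex | Schedule: 30 min compound-proteasome preincubation then 25 min substrate reaction, room temperature | Detection: AMC fluorescence from Ub-AMC cleavage, excitation 355 nm, emission 460 nm | Benchmarks: Wells without proteasome as full block, compound-free enzyme plus substrate as uninhibited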
FGF22 binding: binders of human FGF22 protein, primary screen, FGF22 synaptogenesis inhibitor project, biophysical, thermal shift, single point. Fibroblast growth factor 22 (Homo sapiens), Q9HCT0. recombinant FGF22 thermal shift, SYPRO orange fluorescence; percent of sucrose octasulfate shift, DMSO zero. calls only at 9.99 µM. 1.5% of 340,000 active. AID 651658, 2012;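 active means melting point raised past a set limit in the mean and every replicate; inconclusive means no clear call; three in four hits are not shown here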
Target sequence (Q9HCT0 whole entry, looked up): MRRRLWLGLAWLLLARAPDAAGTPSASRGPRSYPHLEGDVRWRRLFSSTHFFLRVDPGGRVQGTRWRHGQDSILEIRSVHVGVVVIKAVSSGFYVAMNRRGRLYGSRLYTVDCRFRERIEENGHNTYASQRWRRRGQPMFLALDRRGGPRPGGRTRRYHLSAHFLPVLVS
RanGTP-Imp inh: inhibitors of RanGTP-importin-beta interaction, primary screen, biochemical, FRET, CFP-Ran, YFP-importin-beta, homogeneous. Ran GTPase (GTP-bound) - importin-beta complex. cell-free CFP-Ran/YFP-importin-beta FRET ratio. inhibition, % (test concentration not listed). 1.1% of 300,000 active. AID 2216, 2009;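 active means most replicates above 15%; inconclusive means exactly half above 15%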;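 further: 0% = DMSO wells and 100% = Ran loaded with GDP instead of GTP; wells of about 40 µL received 100 nL stock; the first replicate is given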
Starred values were filed as active, the others as inactive. These rows are one share of the data, so the mix of outcomes need not match the whole.

For CCOC(=O)CN1C(=O)Nc2ccc(Br)cc2C1c1ccccc1 (centres undefined) the results were Vif A3G -10%, HNF4A DNA FP -5.3, Ecoli growth 0.73, UCH37 inh 0.7 and RanGTP-Imp inh 0.0.
`Nc1nc(CSc2ncn(-c3ccccc3)n2)cs1` gave Vif A3G 8%, HNF4A DNA FP 4.9, MLL AF4-AF9 inh 5.2, Ecoli growth 0.64, UCH37 inh -0.3, FGF22 binding inactive and RanGTP-Imp inh -3.0.
`CC12CCC(C/C1=N\N=C1\NC(=O)/C(=C\c3cccc(Br)c3)S1)C2(C)C` (centres undefined) gave Vif A3G 21%, HNF4A DNA FP 3.5 and RanGTP-Imp inh 1.9.
`Cc1cccc(-n2c(N)cc(=O)nc2SCC(=O)Nc2nnc(C)s2)c1` gave Vif A3G 16%, HNF4A DNA FP 0.8, Ecoli growth 0.64, UCH37 inh 3.4 and RanGTP-Imp inh inconclusive.
Screening COc1ccc(C2CC(c3ccc(C(F)(F)F)cc3)=NN2c2ccc(S(N)(=O)=O)cc2)cc1 (centres undefined) returned Vif A3G -2%, HNF4A DNA FP 3.8, MLL AF4-AF9 inh -75, Ecoli growth 0.71, UCH37 inh inactive and FGF22 binding inactive.
CC(CCc1ccccc1)NC(=O)c1ccc(Br)o1 (centres undefined) was read as Vif A3G 3%, HNF4A DNA FP -0.3, Ecoli growth 0.67, UCH37 inh 1.8 and RanGTP-Imp inh -1.0.
Screening CC(CCc1ccccc1)NC(=O)COC(=O)c1cccs1 (centres undefined) returned Vif A3G -4%, HNF4A DNA FP 3.0, MLL AF4-AF9 inh -0.6, Ecoli growth 0.69, UCH37 inh 1.1, FGF22 binding inactive and RanGTP-Imp inh -11.
CCN(CC)S(=O)(=O)c1ccc(N2CCOCC2)c(NS(=O)(=O)c2cccs2)c1 was read as HNF4A DNA FP 4.2, MLL AF4-AF9 inh -1.7, Ecoli growth 0.7, UCH37 inh 4.9 and FGF22 binding inactive.
For Cn1cc(SCC(=O)O)c2ccccc21 the results were Vif A3G 5%, HNF4A DNA FP 0.9, Ecoli growth 0.68, UCH37 inh -2.6 and RanGTP-Imp inh -2.6.
For O=C(NNC(=O)c1ccc([N+](=O)[O-])cc1)c1ccc(NS(=O)(=O)c2cccs2)cc1 the results were Vif A3G -3%, HNF4A DNA FP 5.7, MLL AF4-AF9 inh -4.9, Ecoli growth 0.7, UCH37 inh 6.5 and FGF22 binding inactive.
`Cc1cc(C)nc(NS(=O)(=O)c2ccc(NS(=O)(=O)c3ccc(C#N)cc3)cc2)n1` gave Vif A3G -4%, HNF4A DNA FP 1.8, MLL AF4-AF9 inh -2.0, Ecoli growth 0.68, UCH37 inh 0.3, FGF22 binding inactive and RanGTP-Imp inh 3.8.
Nc1nc(SCC(=O)NCCCN2CCOCC2)nc2sc3c(c12)CCC3 was read as Vif A3G 0%, HNF4A DNA FP -2.9, MLL AF4-AF9 inh -6.8, Ecoli growth 0.72, UCH37 inh 4.2, FGF22 binding inactive and RanGTP-Imp inh 1.2.
Screening Cc1c(Cl)cccc1NC(=O)C1=COCCO1 returned Vif A3G -7%, HNF4A DNA FP -0.7, MLL AF4-AF9 inh -28, Ecoli growth 0.68, UCH37 inh 2.1, FGF22 binding inactive and RanGTP-Imp inh 0.3.
`O=S(=O)(NCC(c1cccnc1)N1CCc2ccccc2C1)c1ccccc1` (centres undefined) gave HNF4A DNA FP -0.1, MLL AF4-AF9 inh 1.8, Ecoli growth 0.65, UCH37 inh 2.1, FGF22 binding inactive and RanGTP-Imp inh 1.2.
For CCOc1ccc(CNC(=O)CCCn2ccc3cc(S(=O)(=O)N4CCCC4)ccc32)cc1 the results were HNF4A DNA FP -0.3, MLL AF4-AF9 inh -1.8, Ecoli growth 0.71, UCH37 inh 5.9, FGF22 binding inactive and RanGTP-Imp inh 1.4.
`Fc1ccc(/C=N/n2c(COc3ccccc3)n[nH]c2=S)cc1` gave Vif A3G -1%, HNF4A DNA FP 2.6, MLL AF4-AF9 inh 3.1, FGF22 binding inactive and RanGTP-Imp inh 2.3.
CSc1nc2c(c(=O)[nH]1)C(c1ccccc1Cl)CC(=O)N2 (centres undefined) was read as Vif A3G 14%, HNF4A DNA FP -3.2, MLL AF4-AF9 inh 0.1, Ecoli growth 0.76, UCH37 inh 1.9, FGF22 binding inactive and RanGTP-Imp inh 1.9.
Screening N/C(Cc1cccc2ccccc12)=N\OC(=O)c1cccs1 returned Vif A3G 7%, HNF4A DNA FP 3.5, UCH37 inh 2.4 and RanGTP-Imp inh -1.0.
Screening COC(=O)[C@H](Cc1ccccc1)NC(=O)[C@@]1(C)C[C@@H]1[C@@H](NC(=O)OCc1ccccc1)c1ccccc1 returned Vif A3G 7%, HNF4A DNA FP 1.1, MLL AF4-AF9 inh -2.4, UCH37 inh 2.4, FGF22 binding inactive and RanGTP-Imp inh -1.6.
Screening CCN(Cc1ccccc1)C(c1ccc(C)cc1)c1nnnn1C(C)(C)C (centres undefined) returned Vif A3G 2%, HNF4A DNA FP 0.6, Ecoli growth 0.65, UCH37 inh -0.4 and RanGTP-Imp inh 5.2.

In the list so far, three have bromine.
For CCOC(=O)CN1C(=O)Nc2ccc(Br)cc2C1c1ccccc1 (centres undefined) the results were Vif A3G -10%, HNF4A DNA FP -5.3, Ecoli growth 0.73, UCH37 inh 0.7 and RanGTP-Imp inh 0.0.
`CC12CCC(C/C1=N\N=C1\NC(=O)/C(=C\c3cccc(Br)c3)S1)C2(C)C` (centres undefined) gave Vif A3G 21%, HNF4A DNA FP 3.5 and RanGTP-Imp inh 1.9.
CC(CCc1ccccc1)NC(=O)c1ccc(Br)o1 (centres undefined) was read as Vif A3G 3%, HNF4A DNA FP -0.3, Ecoli growth 0.67, UCH37 inh 1.8 and RanGTP-Imp inh -1.0.

The list goes on.
Screening O=C(CN(c1ccc(Cl)cc1)S(=O)(=O)c1ccc(Cl)c([N+](=O)[O-])c1)NCCc1ccccc1 returned Vif A3G -5%, HNF4A DNA FP -4.6, MLL AF4-AF9 inh 1.8, Ecoli growth 0.74, UCH37 inh 0.9, FGF22 binding inactive and RanGTP-Imp inh 0.1.
Screening Cc1ccccc1NS(=O)(=O)c1ccc(C)c(C(N)=O)c1 returned Vif A3G 4%, HNF4A DNA FP -0.3, Ecoli growth 0.71, UCH37 inh 2.8 and RanGTP-Imp inh -2.8.
Screening CCN(C(=O)COC(=O)c1c(C)nsc1NC)c1ccccc1 returned Vif A3G -11%, HNF4A DNA FP 3.4, MLL AF4-AF9 inh -5.4, Ecoli growth 0.7, UCH37 inh 2.6 and FGF22 binding inactive.
Screening CCOc1ccc(OCC)c(NC(=O)C2CCN(S(=O)(=O)c3c(C)[nH]c(=O)[nH]c3=O)CC2)c1 returned Vif A3G -1%, HNF4A DNA FP 0.0, MLL AF4-AF9 inh 0.0, Ecoli growth 0.7, UCH37 inh -0.3 and RanGTP-Imp inh 4.2.
`Cc1cccc(NC(=O)CCCN2C(=O)c3ccccc3C2=O)n1` gave Vif A3G 26%, HNF4A DNA FP -6.1, Ecoli growth 0.67, UCH37 inh -0.5 and RanGTP-Imp inh 1.6.
Screening O=C1c2ccccc2C(=O)N1c1ccc(Cl)cc1 returned Vif A3G -6%, Ecoli growth 0.68, UCH37 inh -0.8 and RanGTP-Imp inh 2.5.
Cc1cc(=O)oc2cc(OCC(=O)NCCCn3ccnc3)ccc12 was read as HNF4A DNA FP -3.0, MLL AF4-AF9 inh -8.8, Ecoli growth 0.7, UCH37 inh -9.9, FGF22 binding inactive and RanGTP-Imp inh -3.9.
`CC1CCC(NC(=O)CSc2nncs2)CC1` (centres undefined) gave Vif A3G 6%, HNF4A DNA FP -1.6, MLL AF4-AF9 inh 0.2, Ecoli growth 0.64, UCH37 inh 1.6 and FGF22 binding inactive.
Screening O=C(N/N=C\c1cccnc1)c1ccccc1O returned Vif A3G -6%, HNF4A DNA FP 0.9, MLL AF4-AF9 inh -3.7, FGF22 binding inactive and RanGTP-Imp inh 8.4.
`C=C(C)[C@@H](O)COc1c2ccoc2cc2oc(=O)ccc12` gave HNF4A DNA FP -0.3, MLL AF4-AF9 inh -2.8, Ecoli growth 0.79, UCH37 inh -7.4 and FGF22 binding inactive.
Screening CCCNC(=O)c1ccc2c(c1)CCN2S(C)(=O)=O returned Vif A3G 4%, HNF4A DNA FP -2.4, MLL AF4-AF9 inh 2.2, Ecoli growth 0.68, UCH37 inh 2.9, FGF22 binding inactive and RanGTP-Imp inh -1.6.
For O=C(COc1ccc(S(=O)(=O)NC2CCCCC2)cc1)Nc1ccc2c(c1)OCCO2 the results were Vif A3G -2%, HNF4A DNA FP 4.9, MLL AF4-AF9 inh 0.0, Ecoli growth 0.78, UCH37 inh -0.9, FGF22 binding inactive and RanGTP-Imp inh 1.4.
`COCCNC(=O)Cn1cc(C(=S)N2CCOCC2)c2ccccc21` gave Vif A3G 7%, HNF4A DNA FP 0.4, MLL AF4-AF9 inh -2.1, Ecoli growth 0.7, UCH37 inh 6.1, FGF22 binding inactive and RanGTP-Imp inh 1.0.
For CCCCCCSc1nnc(N)s1 the results were Vif A3G -3%, HNF4A DNA FP 4.0, MLL AF4-AF9 inh -1.1, Ecoli growth 0.63, UCH37 inh 5.4, FGF22 binding inactive and RanGTP-Imp inh -1.6.
`COc1ccccc1CNC(=O)Cn1ccc2cc(S(=O)(=O)N3CCCC3)ccc21` gave Vif A3G -2%, HNF4A DNA FP 1.8, MLL AF4-AF9 inh 2.0, Ecoli growth 0.72, UCH37 inh 0.3, FGF22 binding inactive and RanGTP-Imp inh -0.4.
`CCN(CC)S(=O)(=O)c1ccc(C)c(NC(=S)N2CCN(Cc3ccc4c(c3)OCO4)CC2)c1` gave Vif A3G 4%, HNF4A DNA FP -2.9, MLL AF4-AF9 inh 0.0, Ecoli growth 0.66, UCH37 inh 4.4, FGF22 binding inactive and RanGTP-Imp inh -7.1.
For CC12CN3CC(C)(CN(C1)C3c1ccc(Br)cc1)C2 (centres undefined) the results were Vif A3G -4%, HNF4A DNA FP -2.5, Ecoli growth 0.71, UCH37 inh 2.4 and RanGTP-Imp inh 2.9.
C/C=C/c1ccc(OCC(O)CN2CCCCC2CC)c(OC)c1 (centres undefined) was read as Vif A3G -2%, HNF4A DNA FP 2.8, MLL AF4-AF9 inh 5.9, Ecoli growth 0.69, UCH37 inh 3.9, FGF22 binding inactive and RanGTP-Imp inh 1.1.
`COc1ccnc(Oc2ccccc2)c1C(N)=O` gave Vif A3G 9%, HNF4A DNA FP -2.8, MLL AF4-AF9 inh -1.2, Ecoli growth 0.64, UCH37 inh 3.2, FGF22 binding inactive and RanGTP-Imp inh 3.4.
CC(C)OC(=O)CSc1nnc(-c2ccc(O)cc2)n1Cc1ccccc1 was read as Vif A3G 2%, HNF4A DNA FP -2.8, Ecoli growth 0.71, UCH37 inh 1.8 and RanGTP-Imp inh -0.1.
COc1ccc(N(CC(=O)N2CCN(Cc3ccc4c(c3)OCO4)CC2)S(=O)(=O)c2ccc(F)cc2)cc1 was read as Vif A3G 17%, HNF4A DNA FP -3.0, MLL AF4-AF9 inh 13, Ecoli growth 0.71, UCH37 inh 1.3, FGF22 binding inactive and RanGTP-Imp inh -2.8.
